SARS PLP yeast – blocks SARS-CoV papain-like protease in a yeast assay; S. cerevisiae expressing SARS-CoV PLpro, growth rescue; control for the full effect not named in the record; Potency, µM (doses to about 32.9 µM), for inactives: top-dose activity, positive = growth rescue; 0.19% of 330,000 active; note: 0% is about no effect; nearly all actives have a fitted effect of over 55% in size; growth read by luminescence after 48 h
Cruzain inh Det – cruzain (T. cruzi) inhibition with detergent; AID 1478; Potency, µM, for the others: max response, negative = inhibition, hits mostly inhibitors; 0.43% of 200,000 active; purified cruzain, Z-FR-AMC fluorescence, 0.01% Triton; active = well fitted curve in the direction sought with a large enough effect; inconclusive = small, poorly fitted or top-dose-only effect, or another doubt; inactive = no such curve, though single readings can be large; an effect the other way counts as inactive or inconclusive;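 note: plate controls were neutral wells for no effect and buffer without enzyme for full effect; nearly all actives have a fitted effect of over 40% in size; top concentration of the series not given in the record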
Target sequence (P25779 123-467 limits assumed): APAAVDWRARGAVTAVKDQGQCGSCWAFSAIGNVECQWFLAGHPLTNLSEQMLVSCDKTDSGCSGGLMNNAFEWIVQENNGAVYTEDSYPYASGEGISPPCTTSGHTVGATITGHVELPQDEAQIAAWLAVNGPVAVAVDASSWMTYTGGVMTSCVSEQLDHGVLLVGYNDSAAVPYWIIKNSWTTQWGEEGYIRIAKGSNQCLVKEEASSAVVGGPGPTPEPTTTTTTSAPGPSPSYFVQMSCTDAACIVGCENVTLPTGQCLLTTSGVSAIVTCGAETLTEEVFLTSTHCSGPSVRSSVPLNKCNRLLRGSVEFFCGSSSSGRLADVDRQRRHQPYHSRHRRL
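Cysteine protease activity tested under reducing, mildly acidic conditions (100 mM sodium acetate pH 5.5, 5 mM DTT) plus 0.01% Triton X-100. Cruzain 1.5 nM; substrate Z-FR-AMC 2 uM; 15 min compound preincubation at room temperature.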
NS1 function inh – influenza NS1 inhibition; S. cerevisiae slowed by influenza A NS1, growth recovery by OD600; Potency, µM (titrated, usually from 46.1 µM), inactives show at the top dose activity, positive = more growth; 0.4% of 270,000 active; AID 2326; note: actives are rising curves; nearly all actives have a fitted effect of over 50% in size
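Compounds were scored for reversing the slow growth caused by influenza A NS1 in S. cerevisiae, measured by optical density at 600 nm. Assay medium contained 2% galactose at pH 6.0; NS1-free yeast of the same strain were the positive control.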
MARV entry inh – Marburg virus entry inhibition. Marburg virus pseudotyped entry inhibition, cell reporter; control for the full effect not named in the record; about a third of the inactives were read at about 46 µM. Potency, µM (doses to about 37.8 µM), without a hit: top-dose activity change, negative = inhibition, usual class: inhibitors. 1.8% of 300,000 active. AID 540276; active = well fitted inhibition curve with a large enough effect; inconclusive = small, poorly fitted or top-dose-only effect, or effect the other way; inactive = flat fitted curve, though single readings scatter; tested in HEK293 cells; about a fifth of its hits are not listed in these tables; note: % is set by controls: 0 for no effect and ±100 for the full control effect; luciferase read-out
RE007 growth inh – less growth of the S. pombe RE007 Vpr strain. S. pombe RE007 Vpr strain, BacTiter-Glo ATP luminescence, 24 h; control for the full effect not named in the record. Potency, µM (series often up to 92.2 µM), inactives show at the highest dose activity change, negative = less growth. 0.21% of 360,000 active; active = well fitted falling curve with a large enough effect; inconclusive = small, poorly fitted or top-dose-only effect; inactive = no such curve, though single readings can be large or run the other way;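 note: % is set by controls: 0 for no effect and ±100 for the full control effect; nearly all actives have a fitted effect of over 50% in size; the assay follows cell death caused by Vpr and the record does not say whether a fall means rescue or toxicity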
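Fission yeast strain RE007, carrying one chromosomally integrated HIV-1 vpr copy, was seeded at OD 0.01 in PMG+AL medium with 23 nL pinned compound. After 24 h at 30 °C and 99% humidity, viability was read by BacTiter-Glo luminescence.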
Cruzain noTriton – inhibitors of Trypanosoma cruzi cruzain without detergent | purified cruzain, Z-FR-AMC fluorescence, no detergent | P25779 | 2.3% of 200,000 active | Potency, µM, inactives show max response, negative = inhibition, hits mostly inhibitors; active = well fitted curve in the direction sought with a large enough effect; inconclusive = small, poorly fitted or top-dose-only effect, or another doubt; inactive = no such curve, though single readings can be large; an effect the other way counts as inactive or inconclusive;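 note: plate controls were enzyme without inhibitor for no effect and buffer without enzyme for full effect; nearly all actives have a fitted effect of over 40% in size; top concentration of the series not given in the record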
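Purified cruzain at 1.5 nM, pre-incubated 15 min with compound at room temperature in 100 mM sodium acetate pH 5.5, 5 mM DTT, 0.00005% Triton X-100. Reaction started with 2 uM Z-FR-AMC; AMC fluorescence increase over 60 s gives rate.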
2A StopGo – FMDV 2A StopGo reporter, luciferase signal; human cells with a luciferase reporter of 2A StopGo recoding; control for the full effect not named in the record; Potency, µM (titrated, usually from 57.9 µM), inactives show at the highest dose signal change, negative = less light; 1.2% of 410,000 active; active = well fitted falling curve with a large enough effect; inconclusive = small, poorly fitted or top-dose-only effect; inactive = no such curve, though single readings can be large or run the other way; tested in HEK293T cells; note: % is set by controls: 0 for no effect and ±100 for the full control effect; nearly all actives have a fitted effect of over 45% in size; luciferase light after 4 h
Lassa entry inh – blocks Lassa virus binding to or entry into cells; 1.2% of 300,000 active; Potency, µM (highest dose often 37.9 µM), for the others: at the top dose activity change, negative = inhibition, actives largely listed as inhibitors; Lassa virus pseudotype entry inhibition, cell reporter; control for the full effect not named in the record; active means well fitted inhibition curve with a large enough effect; inconclusive means small, poorly fitted or top-dose-only effect, or effect the other way; inactive means flat fitted curve, though single readings scatter; tested in HEK293 cells; note: % is set by controls: 0 for no effect and ±100 for the full control effect; nearly all actives have a fitted effect of over 50% in size; luciferase read-out
The depositor's hits bear a star; u = inconclusive; x = not tested or not shown; & = joins results of further samples; [ ] = another dose, or the depositor's remark. Unless noted, calls come from the whole dose curve; as a rule, active means well fitted rising curve with a large enough effect; inconclusive means small, poorly fitted or top-dose-only effect; inactive means no such curve, though single readings can be large or run the other way. Potency is the fitted concentration of half-maximal effect.

nr	Molecule	SARS PLP yeast	Cruzain inh Det	NS1 function inh	MARV entry inh	RE007 growth inh	Cruzain noTriton	2A StopGo	Lassa entry inh
1	CN1C(=O)C(C)(C)c2cc(S(=O)(=O)N3CCCC(C(=O)NCc4ccc(F)cc4)C3)ccc21 (stereo not given)	0%	x	-17%	x	1%	x	u	x
2	CCNC(=O)CN(c1ccccc1)S(=O)(=O)c1ccc(Cl)cc1	u	-0.6%	6%	10%	-5%	5%	21%	1%
3	CCS(=O)(=O)N1Cc2ccccc2CC1C(=O)Nc1ccc(OC)c(OC)c1 (stereo not given)	5%	x	1%	10%	-14%	x	35%	1%
4	Cc1cccn2c(=O)c3cc(C(=O)NC(C)c4ccccc4)c(=N)n(CCCn4ccnc4)c3nc12 (stereo not given)	-1%	x	16%&3%	4.5µM*	-23%	x	-2%	u
5	CCCCN1C(=O)C2ON(c3ccccc3C)C(c3ccco3)C2C1=O (stereo not given)	-16%	-2.6%	-64%	u	0%	5%	x	-21%
6	CCCC1(CC(C)C)C(=O)NC(=S)NC1=O	x	x	x	u	15%	x	-11%	u
7	COc1ccc(C2=NOC(C(=O)Nc3ccc4c(c3)OCCO4)C2)cc1OC (stereo not given)	0%	x	-2%	13%[46.1 µM]	13%	x	-15%	29%[46.1 µM]
8	O/N=C(/CCc1ccccc1)C1(O)CCCCC1	2%	-8.8%	-12%	1%	15%	2%	x	-4%
9	CC(C)Cn1c(=S)[nH]c2cc(Cl)ccc21	-15%	x	x	2%	-6%	x	-28%	-6%
10	COc1ccccc1NC(=O)c1ccc(COc2ccccc2OC)cc1	x	x	x	-4%	-2%	x	-22%	10%
11	COC(=O)c1cc(Br)c(=O)n(CCc2ccccc2)c1	1%	0.7%	-2%	16%	-7%	10%	-15%	-1%
12	COC(=O)c1ccccc1NC(=O)c1cc2ncc(Br)cn2n1	x	-3.9%	-4%	-29%	0%	5%	-13%	2%
13	CCn1c(CNC(=O)c2cccc(C)c2)nnc1SCC(=O)NC1CCCCC1C (stereo not given)	2%	4.8%	-4%	-29%	-1%	4%	4%	-2%
14	CC(=O)N1CCN(C(=O)c2cc(=O)c3ccccc3o2)CC1	-2%	x	2%	9%[46.1 µM]	-4%	x	10%	3%[46.1 µM]
15	COc1ccc(OCc2cc(C(=O)NC3Cc4ccccc4C3)no2)c(Cl)c1	-4%	x	6%	u	4%	x	-7%	u
16	CCC(C)N(C(=O)c1csnn1)C(C(=O)NC(C)(C)C)c1ccccc1 (stereo not given)	-1%	1.5%	2%	-9%	6%	5%	-23%	6%
17	COc1cccc(/C=N/NC(=O)C(=O)NCc2cccnc2)c1	2%	1.8%	6%	1%	9%	-1%	x	-7%
18	Cc1cccc(NC(=O)CN(C)S(=O)(=O)c2ccc3c(c2)n(C)c(=O)c(=O)n3C)c1C	-2%	x	-5%	-25%[46.1 µM]	12%	x	-3%	u
19	Cc1cccc(C(=O)N2CCCCCC2)c1	20%	3.8%	-2%	22%	2%	-1%	15%	6%
20	Cc1cc(C(=O)NC2CC(C)(C)Cc3c2cnn3-c2ccccc2C)c(C)o1 (stereo not given)	1%	x	-7%	u	4%	x	6%	u
21	Cc1nc2ccccc2nc1N1CCCCC1	5%	0.1%	-9%	20%	0%	9%	23%	19%
22	CC(C)c1ccc(NC(=O)[C@@H]2CCC(=O)N2C2OC(=O)c3ccccc32)cc1 (stereo not given in full)	1%	x	7%	x	-15%	x	47%[activator]	x
23	CCOC(=O)C1CCN(C(=O)Cc2ccccc2OC)CC1	-2%	x	x	-17%[46.1 µM]	4%	x	-11%	13%
24	O=C(Nc1ccc(F)cc1F)c1ccc(CN2CC(=O)N3CCCCC3C2=O)cc1 (stereo not given)	x	0.0%	x	x	x	-2%	0%	-6%[46.1 µM]
25	CN(C)N1C(N)=C(C#N)C(c2cccc3ccccc23)C2=C1CC(c1ccccc1)CC2=O (stereo not given)	0%	-4.6%	22µM*	u	2%	u	0%	u
26	O=C(ON=C1CCN(c2ccc([N+](=O)[O-])cc2)CC1)c1ccccc1	-35%	-6.1%	-268%	0%	-10%	0%	-1%	-20%
27	OCC[C@H]1C[C@@H](O)[C@H](O)[C@]2(CCCCO2)O1	7%	x	-5%	x	62%	x	-3%	x
28	COc1ccc(NC(=O)c2sc3nc4c(cc3c2N)CN(Cc2ccccc2)CC4)cc1	x	0.5%	x	u	x	11%	-7%	5%[46.1 µM]
29	COc1cccc(OCCOc2cccc(/C=N/n3cnnc3)c2)c1	-8%	-2.8%	-20%	-19%	1%	10%	-24%	u
30	CCOC(=O)c1cc(C(=O)n2cc(Cl)cn2)nn1C	3%	-2.8%	1%	7%	1%	-1%	-6%	-15%
31	Cc1cc(CSc2ccccc2)ccc1NC(=O)c1ccc(Br)cc1	15%	-2.5%	10%	u	22%	u	-14%	2%
32	CC(=O)[C@@]1(O)CCC2C3CC=C4C[C@@H](O)CC[C@]4(C)C3CC[C@@]21C (stereo not given in full)	-1%	x	x	29%	5%	x	-7%	-6%
33	COc1cccc(C(=O)Nc2ccc(-c3cc(C(F)(F)F)nn3-c3ccccc3)cc2)c1	x	-3.1%	x	u	x	u	13µM*	u
34	O=C(COc1ccc2ccccc2c1)Nc1nc2ccccc2[nH]1	3%	1.4%	-20%	-9%	6%	25µM*	-3%	7%
35	Cc1nnc(SCC(=O)Nc2ccc(Br)cc2)n(N)c1=O	6%	x	13%	-1%	16%	x	-10%	-8%
36	O=C(NN=C(Cc1ccccc1)Cc1ccccc1)c1ccccc1F	-6%	x	x	-1%[46.1 µM]	5%	x	40%[activator]	-3%
37	COc1ccc(-n2nc(C(=O)NCC(=O)O)c3ccccc3c2=O)cc1	2%	x	-11%	x	4%	x	5%	x
38	CCCOc1cccc(-c2cc(C(=O)N/N=C/c3ccccn3)c3ccccc3n2)c1	4%	x	-42%	u	17%	x	-25%	u
39	Cc1oc(/C=N/NC(=O)CN(c2ccccc2Cl)S(C)(=O)=O)cc1Br	-18%	-8.2%	5%	u	8%	-6%	-9%	2%
40	Nc1ccc(-c2ccc(N)cc2C(F)(F)F)c(C(F)(F)F)c1	2%	-1.5%	-41%	-21%	28%	-3%	u	2%
41	Nc1ccc(S(=O)(=O)N2CCCCC2c2cccnc2)cc1 (stereo not given)	7%	2.0%	-4%	x	-2%	-1%	-11%	x
42	CC(C)OC(=O)c1nnn(-c2nonc2N)c1CN1CCCCCC1	2%	4.4%	-5%	-15%	14%	5%	x	-5%
43	O=C(CN1C2=NCCCN2c2ccccc21)c1cccs1	1%	0.0%	-7%	-4%	3%	-9%	-27%	20%
44	COc1cccc2cc(C(=O)N3CCN(C(=O)c4ccccc4)CC3)c(=O)oc12	u	-1.8%	-3%	-1%	17%	-7%	10%	-2%
45	COc1ccc(-c2nc3c4ccccc4ccn3c2CN2CCCCC2)cc1OC	0%	x	-2%	x	-10%	x	13%	x
46	COc1ccc(-n2c(=O)c3ccc(C(=O)NCc4ccc(C)cc4)cc3n(Cc3ccc(Cl)cc3)c2=O)cc1	x	-0.8%	x	14%[46.1 µM]	x	6%	16%	19%[46.1 µM]
47	C=CCn1c(SCC(=O)Nc2ccc(Cl)cn2)nnc1C1CC1	-3%	x	-7%	x	-6%	x	16%	x
48	COc1ccccc1N(C(=O)Cn1nnc2ccccc21)C(C(=O)NCc1ccco1)c1ccc(C)o1 (stereo not given)	4%	1.7%	-9%	-1%	11%	4%	17%	13%
49	CO/N=C/c1ccc(N2CCN(C(=O)c3cccc(Cl)c3)CC2)c([N+](=O)[O-])c1	2%	-6.5%	-14%	-14%	10%	-3%	u	1%
50	NCCCC[C@H]1CNC(=S)N1CC1(c2ccccc2)CC1	1%	x	4%	x	6%	x	-11%	x
51	CC1(C)CC(NC(=O)Cc2ccc(Cl)cc2)CC(C)(C)N1	0%	x	-7%	12%	-5%	x	-9%	u
52	Cc1cc(C(=O)NC2CCCc3ccccc32)no1 (stereo not given)	1%	6.6%	-8%	-9%	-10%	2%	6%	3%
53	COc1ccc(NC(=O)C2(c3ccccc3)CCCC2)cc1	-1%	x	-6%	u	5%	x	-4%	x
54	Cc1ccc(S(=O)(=O)c2nc(N3CCOCC3)sc2Cl)cc1	3%	-0.8%	-15%	-3%[46.1 µM]	4%	-1%	-3%	-5%
55	Cc1nnc(NC(=O)C2CCCN2S(=O)(=O)c2ccc(Cl)cc2)s1 (stereo not given)	3%	x	4%	-3%[46.1 µM]	2%	x	41%[activator]	-13%[46.1 µM]
56	Nc1cc2c(cc1Cl)-c1ccccc1C2	x	x	x	-11%	u	x	32%[activator]	u
57	COC(=O)c1ccc(/C=C2\N=C(SC)SC2=O)cc1	-9%	-0.8%	-4%	2%	9%	u	7%	5%
58	Cc1ccc(NC(=O)CSc2ccccc2NC(=O)c2ccccc2Cl)cc1Cl	-9%	-3.2%	-4%	u	x	-1%	-38%	-1%
59	CCCCOc1ccccc1CC1C(=O)Nc2ccc(Br)cc21 (stereo not given)	x	-16%	x	u	x	-1%	x	-12%[46.1 µM]
60	CNc1oc(-c2ccc(F)cc2)nc1S(=O)(=O)c1ccccc1	0%	x	-1%	4%[46.1 µM]	7%	x	-1%	7%
